FGF22 binding: FGF22 (human) thermal shift binding. Q9HCT0. recombinant FGF22 thermal shift, SYPRO orange fluorescence; percent of sucrose octasulfate shift, DMSO zero. calls only at 9.99 µM. hit rate 1.5% among 340,000. AID 651658;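 active = melting point raised past a set limit in the mean and every replicate; inconclusive = no clear call; three in four hits are not shown here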
Target sequence (Q9HCT0 whole entry, looked up): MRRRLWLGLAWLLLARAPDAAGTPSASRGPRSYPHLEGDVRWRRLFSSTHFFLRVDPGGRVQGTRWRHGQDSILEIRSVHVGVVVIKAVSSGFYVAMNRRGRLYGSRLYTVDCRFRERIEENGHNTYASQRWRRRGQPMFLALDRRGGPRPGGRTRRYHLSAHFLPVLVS
Ecoli rRNA inh: inhibitors of bacterial rRNA selective over humanized ribosomes. E. coli WT GFP vs humanized-ribosome RFP mutants, fluorescence, 24 h; active compounds read low; DMSO median 0, no signal -100. GFP signal change (wild-type ribosome), % (no concentration beside the values). hit rate 1.6% among 350,000. AID 720706;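 active = significant combined selectivity score with lowered wild-type GFP, culture density cut under 30%, mutant RFP and density less affected; inactive = any of these conditions unmet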; also: one replicate is shown; some compounds called inactive have numbers as strong as hits
E coli growth: inhibitors of Escherichia coli growth; OD600, 23 h; active compounds read low; OD600 absorbance (no concentration beside the values); AID 1053175; hit rate 0.21% among 330,000;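 active = OD600 absorbance below the run mean of sample wells minus 3.6 SD, in any replicate, cut at about 0.56 in these data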;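 also: stock transfer was 300 nL into about 60 µL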
HNF4A DNA FP: change in binding of human HNF4 alpha to DNA; activity change, % at 10 µM; P41235; AID 1224865; hit rate 0.3% among 360,000; HNF4a-FITC DNA binding, fluorescence polarization, 1 h; in the data active = activity change above about 30%, passing the limit was not always enough;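 also: controls were the assay level and a saturating level of protein; the project sought stronger binding though the title names inhibitors; some compounds called inactive have numbers as strong as hits; positive values seem to mean higher polarization but the record does not say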
Target sequence (P41235 whole entry, looked up): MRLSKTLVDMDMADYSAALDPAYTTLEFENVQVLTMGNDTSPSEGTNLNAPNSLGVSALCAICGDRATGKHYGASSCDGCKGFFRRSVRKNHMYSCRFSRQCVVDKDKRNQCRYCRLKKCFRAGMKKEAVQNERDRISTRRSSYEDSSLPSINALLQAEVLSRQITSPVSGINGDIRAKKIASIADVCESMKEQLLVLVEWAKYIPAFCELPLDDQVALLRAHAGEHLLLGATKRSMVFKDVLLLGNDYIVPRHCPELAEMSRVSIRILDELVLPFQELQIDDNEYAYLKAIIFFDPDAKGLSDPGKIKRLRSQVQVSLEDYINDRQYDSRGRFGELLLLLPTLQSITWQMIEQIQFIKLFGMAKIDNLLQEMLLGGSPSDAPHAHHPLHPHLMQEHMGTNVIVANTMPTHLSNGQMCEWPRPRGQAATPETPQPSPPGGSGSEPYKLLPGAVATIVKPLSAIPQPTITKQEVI
MLL AF4-AF9 inh: blocks AF4 peptide binding to human AF9; inhibition, % at 10 µM; hit rate 0.47% among 350,000; AlphaScreen, biotin-AF4 peptide binding to FLAG-AF9; AID 651704;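 active = every replicate reaching a set inhibition limit, whatever the replicate mean, cut at about 25% in these data; inconclusive = mean inhibition reaches that limit but some replicates miss it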;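 also: 0% = plate neutral control median and 100% = total signal loss; the record names both 10 and 1 µM as test concentration; the first replicate is given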
Vif A3G: HIV-1 Vif–A3G interaction blockers – biochemical, TR-FRET, GST-Vif 1-94, biotin-A3G peptide, dose response retest, primary screen (AID 1117319). TR-FRET GST-Vif / biotin-A3G peptide binding; higher % means a stronger effect; test concentration not given here; strong numbers were not always called active. inhibition, %, or IC50 in µM where a hit was titrated. hit rate 0.57% among 260,000;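 active = above the screen mean plus three standard deviations and confirmed in dose response; inconclusive = results disagree or hit not tested in dose response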;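 also: Vif residues 1-94 fused to GST binding biotinylated APOBEC3G peptide 110-148; 0% = full assay without inhibitor and 100% = GST in place of GST-Vif; retest series ran down from 100 µM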
ALR inh: blocks human ALR sulfhydryl oxidase activity; P55789; purified ALR, DTT oxidation, H2O2 HRP-luminol luminescence; inhibition, % (no concentration beside the values); hit rate 3.8% among 290,000; AID 485317;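 active = mean and each replicate at 75% or more; inconclusive = only one of the two met; inactive = neither met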;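 also: stock transfer was 7.5 nL into about 7.5 µL; 0% = neutral wells and 100% = wells with inactivated enzyme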
Target sequence (P55789 whole entry, looked up): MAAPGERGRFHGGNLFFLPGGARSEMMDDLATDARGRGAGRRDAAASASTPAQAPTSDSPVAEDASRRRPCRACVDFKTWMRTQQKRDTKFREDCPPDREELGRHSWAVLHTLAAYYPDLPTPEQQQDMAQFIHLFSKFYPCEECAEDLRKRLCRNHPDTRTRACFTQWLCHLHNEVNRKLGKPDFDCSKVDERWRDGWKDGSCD
Ecoli rRNA inh OD600: recorded beside Ecoli rRNA inh, whose call it bears; OD600 change, %; measured here: OD600 growth;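 optical density of the mix in the first replicate; 0 = DMSO median and -100 = no signal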
Ecoli rRNA inh RFP: also measured in Ecoli rRNA inh; calls as there; RFP signal change, %; measured here: RFP humanized mutant strains;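 first replicate; 0 = DMSO median and -100 = no signal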
The depositor's hits bear a star; i = inactive; ? = inconclusive; nt = no result given; & = joins results of further samples.

SMILES	FGF22 binding	Ecoli rRNA inh	Ecoli rRNA inh OD600	Ecoli rRNA inh RFP	E coli growth	HNF4A DNA FP	MLL AF4-AF9 inh	Vif A3G	ALR inh
COc1ccc(NC(=O)Nc2ccc3c(c2)[C@H]2C[C@H](CC(=O)N4CCN(C)CC4)O[C@@H](CO)[C@H]2O3)cc1	i	1	5	-0.4	nt	nt	2.6	nt	nt
Cc1ccc(NC(=O)C2CCN(S(=O)(=O)c3c(C)noc3/C=C/c3ccco3)CC2)nc1	nt	nt	nt	nt	0.72	3.3	nt	28%	10
CCN(c1ccccc1)S(=O)(=O)c1ccc(C(=O)N(CCCN(C)C)c2nc3cc4c(cc3s2)OCO4)cc1	i	-52	-73	-12	0.67	4.2	?	nt	18
O=C(N[C@@H](Cc1ccccc1)C(=O)OCC(=O)N1CCOCC1)c1cccs1	i	11	1	-0.5	0.7	5.2	-44	5%	-4
C=CCNC(=O)COC(=O)c1ccc(Cl)c(S(=O)(=O)N(Cc2ccccc2)c2ccccc2)c1	i	-10	-13	8.6	0.71	-2.6	-2.8	nt	-2
Cc1c(Cl)c([N+](=O)[O-])nn1Cc1ccc(C(=O)NN)o1	i	13	-3	-0.1	0.67	5.1	-1.5	19%	nt
CCCN(C)C[C@@H]1Oc2cc(/C=C/c3ccccc3)ccc2S(=O)(=O)N([C@@H](C)CO)C[C@H]1C	i	2	12	6.2	nt	nt	14	nt	nt
Cc1ccc(C)c(N2CCN(C(=O)CCCn3c(=S)[nH]c4cc5c(cc4c3=O)OCO5)CC2)c1	nt	nt	nt	nt	0.7	1.9	nt	-22%&-20%	-3
C[C@@H]1CN([C@H](C)CO)C(=O)c2cc(NC(=O)Nc3ccc(C(F)(F)F)cc3)ccc2O[C@@H](C)CCCCO[C@H]1CN(C)Cc1ccc(Cl)c(Cl)c1	i	-5	11	-1.3	nt	nt	-0.2	nt	nt
O=C1C=C(c2ccc(OC(F)(F)F)cc2)C[C@@H](c2ccc(F)cc2)C1	nt	nt	nt	nt	0.73	-1.8	nt	nt	-4
NS(=O)(=O)c1ccc(NC(=O)c2ccc(-c3ccccc3)cc2)cc1	i	8	22	13	0.69	-32	-0.1	-81%	nt
O=C(CSCc1ccc(F)cc1)Nc1ccccc1	nt	nt	nt	nt	0.74	1.3	nt	9%	12
COC(=O)c1cccc(N(C(=O)c2ccco2)C(C(=O)NC2CCCC2)c2ccc(N3CCOCC3)cc2)c1 (stereo not drawn)	nt	5	9	0.9	0.71	0.5	3.6	-2%	nt
CC(C(=O)N1CCc2ccccc21)N(C)CC(=O)Nc1cccc(F)c1 (stereo not drawn)	i	-8	-16	4.7	0.71	-1.8	2.2	nt	nt
CC(C)NC(=O)CN1C(=O)C(C)(C)Oc2ccc(C(=O)NC3CCCCC3)cc21	i	-1	1	-0.1	0.68	-2.3	-2.9	1%	0
CSc1ccccc1NC(=S)NC1CCCCC1	i	-10	-1	-6.0	0.71	1.6	0.3	5%	9
COCCN(C(=O)c1ccc(OCC(C)C)cc1)c1c(N)n(Cc2ccccc2)c(=O)[nH]c1=O	i	1	7	-1.9	0.66	4.1	-35	-4%	2
CCCCOc1ccc(C(O)(CCC)CCN2CCOCC2)cc1 (stereo not drawn)	nt	nt	nt	nt	0.71	-1.5	nt	3%	nt
CN1CCN(c2ccc3c(c2)OC[C@H](Cc2ccccc2)NS3(=O)=O)CC1	i	14	11	-0.8	nt	-0.5	-3.3	nt	nt
C[C@H](NC(=O)C[C@H]1C[C@H]2c3cc(N(C)C)ccc3O[C@H]2[C@@H](CO)O1)c1ccccc1	i	1	7	-1.0	nt	nt	-2.6	nt	nt
O=C1NC[C@H](CCCCN2C[C@H](Cc3ccc(O)cc3)N(CC3CCCCC3)C(=O)C2=O)N(Cc2ccccc2)C1=O	i	-14	-12	8.4	nt	-1.2	2.1	nt	nt
Cc1nn(C)c(C)c1S(=O)(=O)N(CC(=O)NCCN1CCOCC1)c1ccc(C(C)C)cc1	i	8	10	-2.6	0.66	-3.9	0.3	?	-4
CC1(C)COC(c2cccc([N+](=O)[O-])c2)OC1	i	0	10	-2.6	0.66	-1.3	-2.0	-10%	nt
CC(C)n1c(CNC(=O)c2ccccc2F)nnc1SCC(=O)NC1CCCCC1	i	-4	11	2.6	nt	-6.4	8.0	nt	nt
O=C(NCC[C@H]1CC[C@@H](NS(=O)(=O)c2cccc(F)c2)[C@H](CO)O1)C1CCCC1	i	0	-2	-1.5	nt	nt	-2.6	nt	nt
COCCN(C(=O)COC(=O)Cc1cccc2ccccc12)c1c(N)n(Cc2ccccc2)c(=O)[nH]c1=O	i	-3	-11	-1.5	0.66	3.6	-0.1	nt	8
O=C(COC(=O)c1ccc2c(c1)OCCO2)NCCC1=CCCCC1	nt	nt	nt	nt	0.79	1.0	nt	0%	2
Cc1cccc(NC(=O)CNCC(=O)Nc2cccc(C)c2C)c1C	i	0	6	2.4	0.66	1.5	-0.1	-3%	12
O=C(CCc1nc2ccccc2[nH]c1=O)OCC(=O)N1CCc2ccccc21	nt	nt	nt	nt	0.7	-2.8	nt	1%	nt
O=C(CSc1nc(O)cc(=O)n1-c1ccccc1)N1CCCCC1	i	13	5	-8.0	0.72	1.3	7.8	-15%&-4%	nt
COCCNc1nc(N)c([N+](=O)[O-])c(NC2CCCCC2)n1	i	-3	-18	1.3	0.68	2.7	-24	-5%	7
O=C(c1ccc2c3c(cccc13)CC2)N1CCN(c2ncccn2)CC1	i	-28*	-1.5*	-2.3*	0.69	-1.6	2.5	nt	-1
Cc1ccccc1CNC(=O)CCCn1ncn2c(cc3occc32)c1=O	i	-8	-6	-4.5	0.67	1.0	-1.5	nt	-1
COc1ccc(CCNC(=O)CN2C(=O)CSc3ccc(S(=O)(=O)N4CCOCC4)cc32)cc1OC	i	9	8	-6.6	0.69	-2.3	1.8	nt	-2
O=C(NC(=S)N1CCN(c2c(Cl)cccc2[N+](=O)[O-])CC1)c1cccs1	nt	nt	nt	nt	0.72	-1.1	nt	66%	nt
CC(C)NC(=O)N(C)C[C@@H]1Oc2ccc(NS(=O)(=O)c3ccc(Cl)cc3)cc2C(=O)N([C@H](C)CO)C[C@H]1C	i	2	10	-0.7	nt	nt	-2.9	nt	nt
Cc1ccc(-n2nnnc2-c2cnc(-c3cccnc3)nc2C(F)(F)F)cc1	nt	nt	nt	nt	0.71	-2.0	nt	-5%	-1
O=C(O)c1cc(Nc2nc(N3CCOCC3)nc(N3CCOCC3)n2)ccc1Cl	nt	nt	nt	nt	0.66	-2.0	nt	17%	-11
CC1CCN(CC(=O)Nc2ccccc2C(=O)NC2CC2)CC1	i	6	7	-2.7	0.64	1.7	-2.2	-14%	nt
C[C@H]1CN([C@@H](C)CO)C(=O)c2cc(C#CC3CCCC3)cnc2O[C@@H]1CN(C)Cc1ccncc1	i	-1	-1	9.8	nt	nt	5.6	nt	nt
COc1ccccc1C(=O)Oc1cc(N)n(S(=O)(=O)c2ccc(C)cc2)n1	nt	nt	nt	nt	0.69	-1.0	nt	11%	5
COc1ccc(-c2cn(CC[C@H]3CC[C@H](NC(=O)CCN4CCCCC4)[C@H](CO)O3)nn2)cc1	i	1	2	-1.7	nt	nt	0.4	nt	nt
COc1ccccc1NS(=O)(=O)c1cccc(NC(=O)C2CC(=O)N(Cc3ccccc3)C2)c1 (stereo not drawn)	i	-13	2	2.5	0.69	-2.8	-1.1	10%	-15
Cc1nnc(SCC(=O)NC(=O)NC2CCCC2)n1N	nt	nt	nt	nt	0.68	3.0	nt	3%	-4
Cc1ccc(NC(=O)CN(C)C(=O)CSc2nc3ccccc3c(=O)n2CCO)cc1	i	1	2	-2.4	0.64	-3.3	?	-2%	nt
COC(=O)[C@@H](Cc1ccccc1)NC(=O)Cn1cnc2c(SC)nc(N)nc21	i	2	4	0.3	0.72	-2.1	-0.3	-9%	nt
CCOc1ccc(/C=C/c2[nH]c(=O)[nH]c(=O)c2[N+](=O)[O-])cc1	i	10	9	0.5	0.61	2.3	-2.5	nt	45
COc1ccccc1C(C)NCC(=O)NCC(=O)Nc1ccc(F)c(F)c1F (stereo not drawn)	i	1	-9	1.3	0.68	-4.1	-1.8	0%	-1
Cc1nc2cc(-c3cccs3)[nH]n2c(=O)c1C	i	5	5	-7.0	0.62	0.6	-3.9	?	0
CCCC(C)NC(=O)CN1C(=O)NC2(CCc3ccccc32)C1=O (stereo not drawn)	i	10	14	-1.9	0.73	2.1	0.4	-1%	-3
CCCNC(=O)N1CC2(CCN(Cc3cccc(F)c3)CC2)c2c([nH]c3cc(OC)ccc23)[C@@H]1CO	i	-1	-16	-0.9	nt	nt	12	nt	nt
CNC[C@H]1Oc2ccc(NS(=O)(=O)c3c(C)noc3C)cc2C(=O)N([C@H](C)CO)C[C@@H]1C	i	0	0	-3.0	nt	nt	-6.5	nt	nt
CCC(=O)N1CCc2cc(S(=O)(=O)CCC(=O)N3CCc4ccccc4C3)ccc21	nt	nt	nt	nt	0.72	5.3	nt	-3%	-4
CCCCCN(C(=O)NC(=O)Nc1ccccc1C)S(C)(=O)=O	nt	nt	nt	nt	0.71	1.3	nt	1%	2
C[C@@H]1CN([C@@H](C)CO)C(=O)c2cc(NC(=O)CCCN(C)C)ccc2O[C@H]1CN(C)Cc1ccccc1	i	7	10	-1.3	nt	nt	-1.7	nt	nt
Cc1cc(C(=O)N2CCCC(Nc3ccc(F)cc3)C2)c(C)o1 (stereo not drawn)	i	0	-2	0.3	0.68	-1.3	2.0	nt	?
Cc1ccc(F)cc1CNC(=O)C1CCC(=O)N(CCCN2CCCC2=O)C1 (stereo not drawn)	i	0	4	1.0	0.7	-2.3	-0.3	6%	-11
C=CCn1c(SCC(=O)Nc2cccc(OC)c2)nnc1-c1cccnc1	nt	7	6	-0.9	0.68	-2.0	-1.9	9%	-11
CSc1ccc(CCNS(=O)(=O)c2c(C)[nH]c(C)c2C(=O)N2CCCCC2)cc1	i	-3	-6	-2.4	0.7	-0.6	-0.7	-9%	-1
C[C@@H]1CN([C@@H](C)CO)S(=O)(=O)c2ccc(C#Cc3ccccc3)cc2O[C@@H]1CN(C)CC1CC1	i	2	-12	3.3	nt	nt	7.6	nt	nt
Other results.
SMILES	FGF22 binding	Ecoli rRNA inh	Ecoli rRNA inh OD600	Ecoli rRNA inh RFP	E coli growth	HNF4A DNA FP	MLL AF4-AF9 inh	Vif A3G	ALR inh
CC(=O)N1CCN(C(=O)CCC(=O)O)CC1	i	14	5	2.0	nt	-4.8	2.8	-5%	-8
O=C(CS(=O)(=O)Cc1ccccc1)N1CCN(c2cccc(C(F)(F)F)c2)CC1	nt	nt	nt	nt	0.68	1.6	nt	2%	14
COCCSc1ccccc1C(=O)Nc1ccccc1C#N	i	18	12	4.3	0.66	4.1	-1.6	-9%	0
Cn1c(SCC(=O)Nc2cccc(F)c2)nc2c(c1=O)SCC2	i	13	8	0.5	0.68	1.1	-0.7	nt	94*
COc1ccc(-c2cn[nH]c2-c2ccc(OCc3ccc([N+](=O)[O-])cc3)cc2O)cc1OC	i	1	5	6.1	0.72	5.2	-0.8	15%	4
CCn1c(N2CCN(S(=O)(=O)c3ccccc3)CC2)nc2ccccc21	i	-10	-8	-2.1	0.69	7.8	4.4	nt	-9

Structures listed above shown as hits in ALR inh.
SMILES	FGF22 binding	Ecoli rRNA inh	Ecoli rRNA inh OD600	Ecoli rRNA inh RFP	E coli growth	HNF4A DNA FP	MLL AF4-AF9 inh	Vif A3G	ALR inh
Cn1c(SCC(=O)Nc2cccc(F)c2)nc2c(c1=O)SCC2	i	13	8	0.5	0.68	1.1	-0.7	nt	94*

Screening data from PubChem.

Only part of the results is shown. The share of hits here may be higher or lower than overall.
